GIRK2 activ: activators of human GIRK2 potassium channels; 63,000 compounds, 0.05% hits; P48051; AID 1259325; calls only for hits at 25 µM; HEK293-GIRK2 thallium flux, Thallos fluorescence;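 active = among the strongest 0.2% of first-round signals and kept after retests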;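 note: first round at about 10 µM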
Target sequence (P48051 whole entry, looked up): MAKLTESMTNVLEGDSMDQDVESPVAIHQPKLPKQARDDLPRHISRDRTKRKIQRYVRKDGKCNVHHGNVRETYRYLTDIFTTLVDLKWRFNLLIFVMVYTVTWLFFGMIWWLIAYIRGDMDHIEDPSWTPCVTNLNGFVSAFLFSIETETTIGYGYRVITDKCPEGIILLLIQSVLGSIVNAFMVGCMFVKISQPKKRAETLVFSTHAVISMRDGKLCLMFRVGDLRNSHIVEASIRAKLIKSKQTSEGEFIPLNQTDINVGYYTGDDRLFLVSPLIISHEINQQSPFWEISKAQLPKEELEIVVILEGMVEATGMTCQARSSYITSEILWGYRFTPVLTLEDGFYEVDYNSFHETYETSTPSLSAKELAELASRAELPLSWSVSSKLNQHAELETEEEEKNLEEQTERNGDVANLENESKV
Calls only; i = inactive. Only part of the results is shown; rates above refer to the full screens.

SMILES | GIRK2 activ
O=C(Nc1nnc(-c2cccs2)o1)c1ccc2c(c1)CCCC2 | i
CN(C)S(=O)(=O)c1ccc(-c2nc(C#N)c(NCCN3CCOCC3)o2)cc1 | i
CSc1cccc(NC(=O)c2sccc2S(=O)(=O)N(C)c2ccc(F)cc2)c1 | i
CCn1cnc2c(-c3ccccc3)cn(CC(=O)NCc3ccco3)c2c1=O | i
CC1=C(C)C(=O)OC(C(C)C2C(O)CC3C4C5OC5C5(O)CC(OC6OC(CO)C(O)C(O)C6O)CC(O)C5(C)C4CCC32C)C1 (centres undefined) | i
Cc1ccc(N2CC(C(=O)Nc3cc(-c4cccs4)nn3-c3nc(C)cc(=O)[nH]3)CC2=O)cc1 (centres undefined) | i
Cc1ccccc1NC(=O)Cn1nc2c(SC3CCCCC3)nccn2c1=O | i
O=C1C[C@@H]2[C@@H](/C=C/[C@@H](O)COc3cccc(C(F)(F)F)c3)[C@H](O)C[C@@H]2O1 | i
CCOc1ccccc1C(=O)NCC1(O)CCCC1 | i
CCOc1ccc(Nc2nc3c(c(=O)[nH]c(=O)n3C)n2CC(=O)OC)cc1 | i
Cc1cc(C)c(NC(=O)Cn2cc(C(=O)N3CCCC3)c(=O)c3ccc(C)nc32)c(C)c1 | i
Cc1cc(C(=O)NCC2(c3cccs3)CC2)c(C)o1 | i
CCOC(=O)c1ccccc1NCc1cc(=O)oc2cc(C)c(O)cc12 | i
COc1ccc(S(=O)(=O)Nc2nc(C)c(C(=O)NCc3cccc(OC)c3)s2)cc1 | i
COc1ccc(S(=O)(=O)NCCN2CCN(S(=O)(=O)c3ccc(OC)c(C)c3C)CC2)c(C)c1C | i
C=CCN1CC(c2nc3ccccc3n2Cc2c(F)cccc2Cl)CC1=O (centres undefined) | i
O=C(NCCCN1CCN(c2ccccc2)CC1)C1CC1 | i
Cc1cc(NC(=O)CN2C(=O)c3ccccc3C2=O)c2cc(Br)ccc2n1 | i
O=C(CCCn1cnc(-c2ccccc2)cc1=O)Nc1nc2ccc(Cl)cc2s1 | i
O=C(NCCc1ccccc1)Nc1ccc2c(c1)N(S(=O)(=O)c1cccs1)CCC2 | i

Reprinted from the part before: five entries; new compounds follow.
SMILES | GIRK2 activ
C=CCN1CC(c2nc3ccccc3n2Cc2c(F)cccc2Cl)CC1=O (centres undefined) | i
O=C(NCCCN1CCN(c2ccccc2)CC1)C1CC1 | i
Cc1cc(NC(=O)CN2C(=O)c3ccccc3C2=O)c2cc(Br)ccc2n1 | i
O=C(CCCn1cnc(-c2ccccc2)cc1=O)Nc1nc2ccc(Cl)cc2s1 | i
O=C(NCCc1ccccc1)Nc1ccc2c(c1)N(S(=O)(=O)c1cccs1)CCC2 | i
O=S(=O)(NC1CCCC1)c1ccc2c(c1)CCN2S(=O)(=O)c1ccccc1 | i
CCn1c(SCC(=O)Nc2c(C)cccc2C)nc2nc(N3CCC(C)CC3)sc2c1=O | i
O=C(Nc1nc(CCC(=O)N2CCN(c3ccccc3Cl)CC2)cs1)c1cccs1 | i
Cc1nc(SCc2ccccc2)[nH]c(=O)c1CC(=O)Nc1ccccc1C(N)=O | i
COCCn1c(N)c(C(=O)OC(C)(C)C)c2nc3ccccc3nc21 | i
CC(C)(C)NC(=O)C(=O)NCCc1ccccc1 | i
COc1ccc(-c2coc3cc(OC(=O)N4CCOCC4)ccc3c2=O)cc1OC | i
O=C(NCC1(O)CCOc2ccccc21)C1(c2cccs2)CCCC1 (centres undefined) | i
O=S(=O)(c1ccc2c(c1)OCCO2)N1CCC(c2nnc(C(F)(F)F)o2)CC1 | i
COc1ccccc1N1CCN(c2nnc(SCC(=O)N(C(C)C)C(C)C)s2)CC1 | i
CCCn1cc(C(=O)NC2CCCCC2)c(S(=O)(=O)N2CCN(c3ccccc3Cl)CC2)n1 | i
Cc1cc(C)c(S(=O)(=O)N(C)c2ccc(F)cc2)cc1N(C)S(=O)(=O)c1ccccc1 | i
CCc1nc(N2CCCC2C(=O)O)c2oc3ccccc3c2n1 (centres undefined) | i
O=C(CSc1cc(-n2ccc(C(=O)NC3CC3)n2)ncn1)Nc1ccc(Cl)cc1F | i
COc1ccccc1C(=O)Nc1ccc(Cn2cnc(C(=O)Nc3ccccc3C)c2)cc1 | i
Cc1nc(C)c(-c2nnc(NC(=O)C3(c4ccccc4)CCOCC3)o2)s1 | i
COc1cccc2sc(OC3CN(C(=O)c4cc(C)oc4C)C3)nc12 | i
Cc1nn(C2CCS(=O)(=O)C2)c(C)c1N1CCN(C(=O)c2cc3ccccc3oc2=O)CC1 (centres undefined) | i
COc1cc2c(=O)[nH]cnc2cc1OCc1ccccc1 | i
CC(C)CCNC(=O)CCCCn1c(=O)c2ccccc2n(CC(=O)NCc2ccccc2)c1=O | i
O=C(COc1ccc(-n2cccn2)nn1)NCCCn1ccnc1 | i
CN(C)c1ncc(NS(=O)(=O)c2ccc(F)c(F)c2)cn1 | i
COc1ccccc1-c1csc(-c2nnn(-c3ccc(C)c(F)c3)c2N)n1 | i
CCCCC(=O)Nc1sc2c(c1-c1nc3ccccc3s1)CCN(C(=O)OCC)C2 | i
O=c1ccc(-c2nc(-c3cnccn3)no2)cn1Cc1noc(C2CCCC2)n1 | i
COc1ccccc1N1CCN(CCNS(=O)(=O)c2ccc3c(c2)OCCO3)CC1 | i
Cc1csc(NC(=O)c2ccc(Cn3ccnc3)cc2)n1 | i
COC(=O)c1ccc(C(=O)Nc2nnc(-c3cccs3)o2)cc1 | i
Cc1cc(C)n(CC2CCN(S(=O)(=O)c3cc(F)cc(F)c3)CC2)n1 | i
O=C(NCc1cccnc1)c1csc(-c2cc3ccccc3[nH]2)n1 | i
COc1ccc(C2CCN(C(=O)Nc3ccccc3C)C2)cc1 (centres undefined) | i
COc1ccccc1C1C2=C(Nc3nnnn31)c1ccccc1OC2c1cccs1 (centres undefined) | i
COC(=O)c1scc(-c2ccc(C)cc2)c1S(=O)(=O)N1CCN(c2ccccc2)CC1 | i
CCOC(=O)N1CCC(NC(=O)c2cn(-c3cccc(Cl)c3)nn2)CC1 | i
CCNC(=O)N1CCCC(c2nnc(-c3cccs3)o2)C1 (centres undefined) | i
CCOC(=O)Cc1csc(NC(=O)c2cc(=O)c(OCc3ccccc3)c[nH]2)n1 | i
COc1cccc2cc(C(=O)NCC3(CO)CC3)oc12 | i
O=C(NCCN1CCN(S(=O)(=O)c2cccnc2)CC1)c1cccs1 | i
CC(C)(C)c1csc(CN2CCN(CC(N)=O)CC2)n1 | i
Cc1noc(C)c1CN1CCN(C(=O)CCCc2ccccc2)CC1 | i

6 neighbouring compounds already listed, for reference:
SMILES | GIRK2 activ
O=C(NCc1cccnc1)c1csc(-c2cc3ccccc3[nH]2)n1 | i
COc1ccc(C2CCN(C(=O)Nc3ccccc3C)C2)cc1 (centres undefined) | i
COc1ccccc1C1C2=C(Nc3nnnn31)c1ccccc1OC2c1cccs1 (centres undefined) | i
COC(=O)c1scc(-c2ccc(C)cc2)c1S(=O)(=O)N1CCN(c2ccccc2)CC1 | i
CCOC(=O)N1CCC(NC(=O)c2cn(-c3cccc(Cl)c3)nn2)CC1 | i
CCNC(=O)N1CCCC(c2nnc(-c3cccs3)o2)C1 (centres undefined) | i

Going on with the list:
SMILES | GIRK2 activ
COc1ncccc1C(=O)N1CC(Oc2nc3ccccc3s2)C1 | i
COc1cc(/C=C2/SC(=S)N(c3ccc(C)c(C)c3)C2=O)ccc1O | i
Cc1cc2oc(=O)cc(CNc3ccccc3F)c2cc1O | i
C=C(CC)C(=O)c1ccc(OCC(=O)O)c(Cl)c1Cl | i
Cc1nc(NC(=O)Cc2csc(NC(=O)c3ccc(=O)[nH]c3)n2)sc1C(=O)N(C)C | i
O=C(Nc1c2c(nn1-c1ccc(F)cc1)CSC2)C(=O)N1CCCCCC1 | i
CCOc1ccc(-c2nc(C#N)c(N3CCN(C(=O)c4ccccc4C)CC3)o2)cc1 | i
NC(=O)c1ccccc1NC(=O)C1CC(=O)c2ccccc21 (centres undefined) | i
Cc1ccc2nc(C3CN(C(=O)c4cc(-c5cccs5)[nH]n4)C3)[nH]c2c1 | i
Cc1cc2oc3c(c(=O)c2cc1C)C(c1ccccc1)N(CCN1CCOCC1)C3=O (centres undefined) | i
COc1ccc(CC(=O)Nc2cnc(-n3cccn3)nc2)cc1 | i
CNC(=O)Cn1nnn(-c2ccc(NC(=O)Nc3ccc(C(F)(F)F)cc3)cc2)c1=O | i
O=C(CSc1nnc(-c2ccccc2)o1)Nc1nc(-c2ccccc2)ns1 | i
CC(=O)Nc1ccc(C(=O)NCCNS(=O)(=O)c2ccc(Cl)cc2)cc1 | i
CC1CCCCC1NC(=O)c1ccc(Oc2nccnc2N2CCOCC2)cc1 (centres undefined) | i
COc1cc(OC)cc(-c2noc(-c3sccc3S(=O)(=O)N(C)c3ccc(F)c(F)c3)n2)c1 | i
COc1ccccc1N1CCN(c2ncc3c(=O)n(-c4ccccc4)c(=O)[nH]c3n2)CC1 | i
CCc1ccc(-c2noc(-c3ccc(CS(=O)(=O)c4ccc(C)cc4)o3)n2)cc1 | i
COc1ccc(-c2cc(N3CCN(C(=O)c4c(F)cccc4Cl)CC3)ncn2)cc1 | i
O=C(CCc1ccc(-c2ccc(Cl)cc2)o1)Nc1nccs1 | i

Entries from the list above containing a CF3 group:
SMILES | GIRK2 activ
O=C1C[C@@H]2[C@@H](/C=C/[C@@H](O)COc3cccc(C(F)(F)F)c3)[C@H](O)C[C@@H]2O1 | i
O=S(=O)(c1ccc2c(c1)OCCO2)N1CCC(c2nnc(C(F)(F)F)o2)CC1 | i
CNC(=O)Cn1nnn(-c2ccc(NC(=O)Nc3ccc(C(F)(F)F)cc3)cc2)c1=O | i

Four entries from above, ordered by SMILES length, highest first:
SMILES | GIRK2 activ
COc1cc(/C=C2/SC(=S)N(c3ccc(C)c(C)c3)C2=O)ccc1O | i
O=C(CSc1nnc(-c2ccccc2)o1)Nc1nc(-c2ccccc2)ns1 | i
CC1CCCCC1NC(=O)c1ccc(Oc2nccnc2N2CCOCC2)cc1 (centres undefined) | i
COc1ccc(CC(=O)Nc2cnc(-n3cccn3)nc2)cc1 | i

The listing continues.
SMILES | GIRK2 activ
COc1ccccc1OCCN1C(=O)C(NC(C)=O)c2cc(Cl)ccc21 (centres undefined) | i
O=C(c1ccc(F)c(F)c1)N1CCC(c2nnc(-c3ccco3)s2)CC1 | i
CC(C)CN1CCn2c1nc1c2c(=O)n(C)c(=O)n1C | i
Cc1ccc(N(C)C(=O)Nc2ccc(C)c(Cl)c2)cc1 | i
CCC(C(=O)N1CCN(CCNC(=O)c2ccsc2)CC1)c1ccccc1 (centres undefined) | i
CCCCN1CC(c2nc3ccccc3n2CCOc2ccccc2)CC1=O (centres undefined) | i
C=CCCC(=O)Nc1ccccc1 | i
Cc1ccc2c(NC(=O)C3CC(=O)N(c4ccc(Cl)cc4)C3)cccc2n1 (centres undefined) | i
COC(=O)N1CCN(CCNC(=O)Cc2ccc(S(=O)(=O)C(C)C)cc2)CC1 | i
COCCCNc1nc2c(c(=O)[nH]c(=O)n2C)n1CCOc1ccccc1 | i
CC(Cc1cccs1)NC(=O)/C=C/c1ccccc1 (centres undefined) | i
COc1ccc(NC(=O)c2cnc(N3CCN(c4ccccc4OC)CC3)nc2N)cc1 | i
COc1cccc(S(=O)(=O)NCCCn2ccnc2-c2ccccc2)c1 | i
O=C(c1c(F)cccc1Cl)N1CCC(CSC2=NCCS2)CC1 | i
CCOC(=O)c1csc(NC(=O)C2CCN(S(=O)(=O)c3ccc(F)cc3)CC2)n1 | i
CS(=O)(=O)N1CCN(CC(O)C2CC2)CC1 (centres undefined) | i
O=C(CN1C(=O)COc2ccccc2C1=O)c1ccc(OCc2ccccc2)cc1 | i
CC(C)N1CCc2c(sc(NC(=O)c3nc4ccccc4s3)c2-c2nc3ccccc3s2)C1 | i
O=C(NCc1cccs1)C(c1ccccc1)n1cccc1 (centres undefined) | i
Cc1nc(NCCNC(=O)c2sc(-c3ccccc3)nc2C)cc(-n2ccnc2C)n1 | i
COc1ccc(Cl)cc1NC(=O)CN1CCOCC1 | i
CNC(=O)C(=O)NCC1(CO)CC1 | i
Cc1c(Cl)cccc1NC(=O)C(=O)NCCc1ccc(S(N)(=O)=O)cc1 | i
COc1ccc(CNC(=O)Nc2c[nH]c3ccccc23)cc1 | i
CC(=O)c1sc(NC(=O)CCCS(=O)(=O)Cc2ccccc2)nc1C | i
CCCn1cc(C2=C(c3cn(C)c4ccccc34)C(=O)NC2=O)c2ccccc21 | i
COc1cc(O)cc2oc(-c3ccccc3)cc(=O)c12 | i
CC(=O)Nc1ccc(NC(=S)NC(=O)c2ccc(C(C)(C)C)cc2)cc1 | i
CCOC(=O)Cn1c(=O)c2c(nc3n(-c4ccccc4CC)c(C)cn23)n(C)c1=O | i
Cn1cc(C(=O)NC2CCCCCC2)c(S(=O)(=O)N2CCN(c3cccc(Cl)c3)CC2)n1 | i
CCc1nnc2sc(-c3cc(-c4ccccc4)nc4ccccc34)nn12 | i
Cc1cn2c3c(=O)[nH]c(=O)n(C)c3nc2n1CCN1CCN(C/C=C/c2ccccc2)CC1 | i
O=C(/C=C/c1cccs1)NC1CC(=O)N(C2CC2)C1 (centres undefined) | i
CC1CCN(C(=O)N2CCN(c3ccccc3F)CC2)CC1 | i
O=C(NCC1(c2ccccc2)CCOCC1)Nc1c(F)cccc1F | i
O=C(NCCCN1CCCC1=O)c1coc(NC(=O)C2CC2)n1 | i
COc1cc(/C=C/C(=O)N2CC(Oc3nc4ccccc4s3)C2)cc(OC)c1OC | i
Cc1cccc2sc(N(CCCn3ccnc3)C(=O)c3ccc4c(c3)OCCO4)nc12 | i
COCCN1CCC(CNC(=O)c2cc3ccccc3o2)CC1 | i
O=c1c2ccccc2oc2nc(-c3ccccc3)n(Cc3ccco3)c(=O)c12 | i
CCOCC(=O)N1CC2(COC(C)(C)OC2)C1 | i
O=C(Nc1nnc(-c2cccs2)o1)c1cccc(Oc2ccccc2)c1 | i
C=CCNC(=O)CN1CCN(CC(O)c2cccs2)CC1 (centres undefined) | i
COC(=O)c1sccc1S(=O)(=O)N1CCC(Cn2ccnc2)CC1 | i
CCOc1ccc(CNC(=O)C(=O)c2cn(CC(=O)N3CCOCC3)c3ccccc23)cc1OC | i
O=C(CCCc1ccccc1)N1CCN(c2ncnc3c2nnn3-c2ccccc2)CC1 | i
COc1ccc(-c2csc(NC(=O)Nc3cccs3)n2)cc1OC | i
O=C(Nc1nc2ccccc2s1)C1CCN(S(=O)(=O)c2ccc(F)cc2)CC1 | i
COc1ccc(-c2noc(-c3cccn(CC(=O)Nc4cccc(C)c4)c3=O)n2)cc1OC | i
